# PABP polyA inh: PABP-poly(A) binding inhibition; PABP-poly(A) RNA binding, fluorescence polarization; inhibition, % at 35 µM; 290,000 compounds, 1% hits;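 active means 50% or more with normal probe brightness, or confirmed in later tests; inconclusive means above 50% with abnormal brightness, or retests that disagree; inactive means below 50% or failed in later tests; about a fifth of its hits are not listed in these tables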;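 further: calls also rest on retests at 20 µM and on dose response follow-up; controls were probe without protein and protein plus probe with vehicle; some compounds called inactive have numbers as strong as hits; many hits fall short of the cut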
# MT1-MMP act inh: blocks activation of human MT1-MMP | HT1080 RFP-PRO-GFP cells, GFP/RFP ratio fluorescence, overnight; percent of plate control window, DMSO zero | GFP/RFP ratio change, % at 20 µM | 360,000 compounds, 0.061% hits | AID 651647;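 active means GFP/RFP ratio change of at least 30% with cell ATP level not reduced by more than half and red fluorescence within 50% of control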; further: strong numbers were not always called active
#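 Assay system: RFP-PRO-GFP reporter HT1080 cells; read-out basis: GFP/RFP fluorescence ratio; benchmarks: DMSO wells and RFP-L50D-GFP cells; doses: 20 µM single dose, 1% DMSO; schedule: overnight cell settling, then overnight compound exposure, 37 °C, 5% CO2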
# HIV Env fusion: blocks HIV Env-driven cell-cell fusion. HeLa-JRFL Env/CEM21 cell fusion, luciferase. inhibition, % at 12.3 µM. 360,000 compounds, 1.1% hits. AID 651610;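 active means mean replicate inhibition score of at least 50 and every replicate individually at or above 50; inconclusive means only one of the two criteria met; inactive means mean below 50 and not all replicates reaching 50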;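 further: 0% = plate neutral controls and 100% = maraviroc near 300 nM; one replicate is shown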
# eIF4H inh: inhibitors of RNA binding by human eIF4H; inhibition, % at 35 µM; AID 2012; eIF4H fluorescence polarization binding assay; 290,000 compounds, 0.94% hits; Q15056;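 active means 50% or more with normal probe brightness, or confirmed in later tests; inconclusive means above 50% with abnormal brightness, or retests that disagree; inactive means below 50% or failed in later tests; about a fifth of its hits are not listed in these tables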;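 further: calls also rest on retests at 20 µM and on dose response follow-up; 0% = protein and probe with vehicle and 100% = probe without protein; strong numbers were not always called active; many hits fall short of the cut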
# Rce1 inh: yeast Ras-converting enzyme inhibition; AID 2563; calls only; Q03530; 290,000 compounds, 0.27% hits; yeast membranes, quenched prenylated peptide cleavage fluorescence;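 active means fall in fluorescence gain of 50% or more versus controls, with final raw signal at or below 3038400; inconclusive means same 50% fall but final raw signal above 3038400; inactive means fall in fluorescence gain under 50%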;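 further: plate controls were neutral control wells for no effect and wells lacking membranes for full effect; tested at 10 µM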
# Target sequence (Q03530 whole entry, looked up): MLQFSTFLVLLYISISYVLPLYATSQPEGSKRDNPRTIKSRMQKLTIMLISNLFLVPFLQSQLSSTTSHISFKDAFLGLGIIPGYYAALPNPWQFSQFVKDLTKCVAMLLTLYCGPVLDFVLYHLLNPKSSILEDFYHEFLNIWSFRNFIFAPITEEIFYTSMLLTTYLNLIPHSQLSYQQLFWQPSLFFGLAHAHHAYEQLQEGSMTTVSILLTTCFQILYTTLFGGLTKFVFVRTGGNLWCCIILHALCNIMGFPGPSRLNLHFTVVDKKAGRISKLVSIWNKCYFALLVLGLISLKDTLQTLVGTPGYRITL
# UUG fidelity: alters start codon recognition fidelity in yeast; 350,000 compounds, 0.13% hits; S. cerevisiae UUG-firefly luciferase reporter, luminescence/redox ratio; activity score, % at 18.7 µM;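 active means replicate mean at a twofold rise or more, about +100% in these data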;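 further: firefly luciferase made from a UUG start codon reports start codon fidelity; reporter light over untreated wells divided by growth signal over untreated wells; some hits fall short of that in this replicate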
# CSC inhib: blocks cancer stem cells. cancer stem cell-like cells viability, luminescence. inhibition, % at 7.5 µM. 300,000 compounds, 1.1% hits;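 active means mean at 75% or more and at least half the replicates too; inconclusive means mean and replicates disagree; tested in HMLE shEcad cells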;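 further: 0% = median of negative and 100% = median of positive control wells; the first replicate is given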
# MT1-MMP act inh RFP: further read-out of MT1-MMP act inh, marked with its call; RFP signal change, %; measured here: RFP expression control read;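 0 = vehicle wells; hits needed this value within 50% of zero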
# An asterisk follows results filed as active; i = inactive; ? = inconclusive; nt = no result given.
SMILES,PABP polyA inh,MT1-MMP act inh,MT1-MMP act inh RFP,HIV Env fusion,eIF4H inh,Rce1 inh,UUG fidelity,CSC inhib
O=C(Nc1ccc2nc3n(c(=O)c2c1)CCCC3)c1cccc(F)c1,2.1,1.1,0.8,-5.6,-5.9,i,-10.9,4.0
COc1ccc(NC(=O)c2sc3nc(-c4cccnc4)ccc3c2N)cc1OC,?,-83.2,-1.5,4.7,?,i,-14.0,-0.2
COc1ccc(NC(=O)CN(C)S(=O)(=O)c2ccc3c(c2)n(C)c(=O)c(=O)n3C)cc1,0.0,-0.5,3.3,-3.4,-18.7,i,-24.2,-3.8
CCc1cccc(CC)c1N(COC)C(=O)Cn1ccccc1=N,0.2,0.9,6.2,nt,-1.6,i,8.2,-4.5
CCCCCCCCCCCCS(=O)(=O)CCC(=O)O,4.3,0.6,2.0,-12.7,-0.1,i,-7.5,3.4
Cc1ccnc(SCC(=O)N2CCCc3ccccc32)n1,0.9,1.6,1.7,13.7,-1.5,i,-9.8,-2.5
O=C(CN(Cc1ccco1)C(=O)CNS(=O)(=O)c1ccc(F)cc1)NCc1ccc(F)cc1,-3.5,-2.0,2.0,nt,-5.4,i,-24.7,18.6
COc1ccc(-c2onc(C)c2-c2cnn(-c3ccccc3)c2)c(O)c1C,10.8,0.7,2.3,-10.6,8.1,i,nt,46.2
CCOCCCNC(=O)c1c[nH]c2cc(OC)ccc2c1=O,-7.7,4.2,0.6,3.6,-9.0,i,nt,-5.2
NS(=O)(=O)c1ccc(CCNC(=O)CN2C(=O)c3ccccc3S2(=O)=O)cc1,nt,1.3,0.1,16.6,nt,i,-3.9,-9.3
Cc1cc(OC(F)F)ccc1NC(=S)NC1CCCC1,6.1,1.5,1.2,1.2,1.9,i,-24.4,-16.2
OC(c1ccccc1)c1nc(-c2cc3ccccc3o2)cs1 (stereo not drawn),nt,-1.0,-6.1,-105.6,nt,nt,-16.0,nt
O=C(CCN1C(=O)/C(=C/c2ccc(F)cc2)SC1=S)NC1CCS(=O)(=O)C1 (stereo not drawn),nt,0.3,-2.4,-1.0,nt,i,-25.2,16.1
Cc1ccc(C)c(NC(=O)CN(C)C(=O)Cn2c(=O)oc3ccccc32)c1,nt,-10.2,10.9,-165.9,nt,i,-4.7,-2.3
C=C(C)[C@@H]1CC[C@]2(C(=O)O)CC[C@]3(C)C(CCC4[C@@]5(C)CC[C@H](O)C(C)(C)C5CC[C@]43C)C12 (stereo partly drawn),12.0,1.9,-18.5,nt,-2.8,i,-7.8,93.9*
Cc1nnc(N(C)C(=O)c2cccnc2)s1,5.9,5.3,0.0,17.9,1.5,i,-6.2,5.4
O=C(CSc1nc2ncc(Cl)cc2[nH]1)c1ccc2c(c1)OCO2,-3.2,3.3,-1.0,6.9,-5.2,i,-10.3,-11.1
CCCCCC1=C(C(=O)OC)C(C(=O)OCC)N(S(=O)(=O)C(F)(F)F)c2ccccc21 (stereo not drawn),nt,2.9,-11.3,30.5,nt,nt,-4.5,nt
CCOc1ccc(/C=C\C(C)=N\O)cc1,-5.8,-2.1,-1.9,nt,-8.8,i,-26.9,3.3
CC(C)Nc1nc(NC(C)C)nc(Nn2cnnc2)n1,5.5,-1.9,-0.3,-17.1,4.3,i,nt,-6.8
Cc1cccc(C(=O)OCc2cnc(Cl)s2)c1,5.6,3.9,0.8,nt,-12.8,i,-9.2,-26.5
CCOC(=O)C1CCCN(c2nc3ccccc3nc2C(C#N)C(=O)OC(C)COC)C1 (stereo not drawn),-1.7,-19.9,-13.4,-10.5,13.7,i,nt,-1.5
COc1ccc(C)cc1S(=O)(=O)Nc1ccncc1,1.4,6.4,7.2,1.2,-11.0,i,-0.7,-7.8
Cc1[nH]n(-c2ccccc2)c(=O)c1CCO,1.9,3.6,1.5,-7.5,2.7,i,nt,-2.2
Cc1cc(NS(=O)(=O)c2ccc(NC(=O)COc3ccc(C#N)cc3)cc2)nc(C)n1,nt,2.5,-0.4,2.1,nt,nt,-12.3,-15.3
CC(C)C(NC(=O)c1ccc(Cl)cc1Cl)C(=O)N1CCC1 (stereo not drawn),nt,3.7,3.2,6.9,nt,nt,nt,-9.2
CC(=O)c1ccc(OCC(=O)N2CCCC(Nc3ccc(C)c(C)c3)C2)cc1 (stereo not drawn),-3.5,0.3,-0.3,-8.0,-5.6,i,-3.5,6.9
Cc1ccc(NC(=O)CN(C)C(=O)COc2cccc3cccnc23)cc1,8.9,-5.4,4.3,22.0,2.7,i,nt,-7.2
O=C(/C=C/c1cc(Br)ccc1F)OCC(=O)N1CCOCC1,nt,0.4,-0.2,1.4,nt,nt,-8.0,5.9
COc1cc(C(=O)OC(C)CN2C(C)CCCC2C)cc(OC)c1OC (stereo not drawn),3.6,2.7,4.1,-152.5,2.6,i,-6.6,-6.9

# Taken from above:
# CCOc1ccc(/C=C\C(C)=N\O)cc1 in MT1-MMP act inh = -2.1
# CC(=O)c1ccc(OCC(=O)N2CCCC(Nc3ccc(C)c(C)c3)C2)cc1 (stereo not drawn) in PABP polyA inh = -3.5

# Molecules above containing a cyano group:
SMILES,PABP polyA inh,MT1-MMP act inh,MT1-MMP act inh RFP,HIV Env fusion,eIF4H inh,Rce1 inh,UUG fidelity,CSC inhib
CCOC(=O)C1CCCN(c2nc3ccccc3nc2C(C#N)C(=O)OC(C)COC)C1 (stereo not drawn),-1.7,-19.9,-13.4,-10.5,13.7,i,nt,-1.5
Cc1cc(NS(=O)(=O)c2ccc(NC(=O)COc3ccc(C#N)cc3)cc2)nc(C)n1,nt,2.5,-0.4,2.1,nt,nt,-12.3,-15.3

# (list continues)
SMILES,PABP polyA inh,MT1-MMP act inh,MT1-MMP act inh RFP,HIV Env fusion,eIF4H inh,Rce1 inh,UUG fidelity,CSC inhib
CCOc1cc(C(=O)NC(=S)Nn2cnnc2)cc(OCC)c1OCC,-3.6,1.3,4.2,11.1,-2.7,i,nt,-1.1
COCC(=O)Nc1ccc(S(=O)(=O)N2CCCC2)cc1,4.5,-3.3,2.6,14.7,-2.2,i,7.6,14.2
CC(C)(C)NC(=O)C(c1cccs1)N(C(=O)c1csnn1)c1cccc(F)c1 (stereo not drawn),-2.0,2.2,3.8,-0.9,-0.4,i,nt,2.4
Clc1ncc(CN2CCN(c3ccccc3)CC2)s1,11.8,-0.5,-0.7,1.3,-5.3,i,nt,-5.9
COc1ccc(C(=O)NCc2nnc(SCC(=O)Nc3ccccc3F)o2)cc1,4.3,6.0,6.1,17.5,-5.1,i,-58.2,-6.1
CCCCN(C)C(=O)c1cn(CC)c2ccc(S(=O)(=O)N(C)C)cc2c1=O,0.2,3.7,8.2,14.6,-0.5,i,-5.1,-4.6
O=[N+]([O-])c1cc(-c2ccc(/C=N\n3cnnc3)o2)cc([N+](=O)[O-])c1,16.3,0.8,-3.3,6.6,23.3,i,-14.0,-4.0
Cc1cc(C)n2nc(C(=O)Nc3ccc4c(c3)OCO4)nc2n1,31.6,-4.5,10.3,nt,30.4,i,-11.9,11.9
COc1ccc(OCC(=O)NNC(=O)C(=O)Nc2ccc(C)cc2)cc1,3.0,-0.3,3.2,3.5,-5.3,i,nt,6.2
Cc1ccc2occ(C(c3nnnn3C3CCCC3)N3CCN(C(=O)c4ccco4)CC3)c(=O)c2c1 (stereo not drawn),-8.6,3.2,-5.6,nt,-0.7,i,-7.0,-4.3
O=C(NNC(=O)c1ccc(Br)o1)c1csc(N2CCOCC2)n1,nt,-0.6,1.8,8.9,nt,nt,-1.0,nt
C/C(=N\Nc1ccc(Cl)c(C(=O)O)c1)c1ccc(N2CCOCC2)cc1,-3.5,1.1,-0.2,-13.4,-6.5,i,-11.7,4.1
COc1ccc(S(=O)(=O)Nc2c(C)ccc3nsnc23)cc1OC,-3.2,1.1,0.0,nt,-0.7,i,-12.3,-13.5
Nc1nccnc1C(=O)OCc1nc2sc3c(c2c(=O)[nH]1)CCCC3,nt,-6.9,0.4,-1.0,nt,i,-19.9,-2.3
Cc1ccc(CNC(=O)Cn2c(=O)oc3ccccc32)o1,-9.2,-3.9,-4.6,-18.0,-13.2,i,-18.1,0.3

# Sorted by value in HIV Env fusion (low to high): 3 from the list above
canonical_smiles | MT1-MMP act inh | MT1-MMP act inh RFP | HIV Env fusion | Rce1 inh | UUG fidelity
COc1ccc(OCC(=O)NNC(=O)C(=O)Nc2ccc(C)cc2)cc1 | -0.3 | 3.2 | 3.5 | i | nt
O=[N+]([O-])c1cc(-c2ccc(/C=N\n3cnnc3)o2)cc([N+](=O)[O-])c1 | 0.8 | -3.3 | 6.6 | i | -14.0
O=C(NNC(=O)c1ccc(Br)o1)c1csc(N2CCOCC2)n1 | -0.6 | 1.8 | 8.9 | nt | -1.0

# (continued)
SMILES,PABP polyA inh,MT1-MMP act inh,MT1-MMP act inh RFP,HIV Env fusion,eIF4H inh,Rce1 inh,UUG fidelity,CSC inhib
CCCCCn1nc(C(=O)OCC(=O)c2c(N)n(C)c(=O)n(C)c2=O)c2ccccc2c1=O,-7.1,2.9,-0.2,10.6,3.9,i,-2.9,5.1
COc1ccc(-n2c(SCC(=O)NCC3CCCO3)nc3c(c2=O)SCC3)cc1 (stereo not drawn),14.6,-2.3,-1.4,-5.2,5.7,i,-17.1,1.4
CSCC[C@H](NC(=O)Nc1ccccc1C)C(=O)O,1.0,-0.5,1.3,1.4,-6.9,i,nt,-15.5
COc1cc(OC)c(C2C(C(=O)Nc3ccc(C)cc3C)=C(C)Nc3ncnn32)cc1OC (stereo not drawn),-3.9,5.8,4.0,-59.0,3.3,i,-5.0,26.4
Cc1ccc(NC(=O)C(OC(=O)c2cnc(C)cn2)c2ccccc2)c([N+](=O)[O-])c1 (stereo not drawn),9.1,-1.8,-4.8,-22.7,-15.8,i,-1.9,-1.5
Cc1cc(C(=O)NNC(=O)CN2C(=O)NC(C)(c3ccccc3)C2=O)c(C)o1 (stereo not drawn),nt,-2.3,-0.6,-7.9,nt,i,1.8,-15.6
O=c1[nH]c(NNC(=S)NC2CCCCC2)nc2c1C1(CCCC1)Cc1ccccc1-2,-5.5,2.7,2.7,4.6,8.5,i,nt,?
Nc1ccccc1N1C(=O)c2cccc3cccc(c23)C1=O,nt,-5.9,-0.6,-160.6,nt,i,-10.3,-2.2
COc1ccc(/C=C2\CCc3c2nc2ccccc2c3C(=O)O)cc1OC,?,-19.2,20.5,-0.6,?,i,nt,2.3
CC(=O)Nc1ccc(NC(=O)CSc2nc(C)nc3sc(C)c(C)c23)cc1,6.1,-5.0,-15.4,9.8,-10.1,i,nt,-6.5
CCOC(=O)c1c(NC(=O)CSc2nc3ccccc3c(=O)n2-c2ccc(F)cc2)sc(C(C)=O)c1C,30.0,-1.4,-2.5,7.4,4.3,i,nt,3.1
CO/N=C/NC(=O)NOCc1ccc(Cl)cc1Cl,-8.4,1.1,1.8,nt,-4.5,i,-18.0,8.2
Cc1ccccc1OCC(=O)Nc1ccccc1N1CCC(C)CC1,-8.9,-0.4,-3.1,-3.6,0.7,i,nt,-13.7
COc1ccc(CNC(=O)CN(C(=O)c2snc(C(N)=O)c2N)c2ccc(F)cc2)cc1,-1.8,0.0,-1.1,-3.9,-6.7,i,16.8,-4.3
Cc1ccc(S(=O)(=O)NCC(=O)OCC(=O)c2ccc(S(=O)(=O)N3CCCCC3)cc2)cc1C,nt,8.1,5.1,5.5,nt,nt,-20.0,nt
CC(C)c1ccc(C(C)NC(=O)C2CCCC2)cc1 (stereo not drawn),-8.5,6.8,-6.8,13.1,-3.5,i,-2.3,-8.5
CCn1c(=O)n(CC(=O)NCc2ccco2)c(=O)c2ccccc21,21.2,1.1,-1.3,nt,-9.4,i,-9.6,-11.7
Cc1ccc(N2CCN(S(=O)(=O)N3CCCCCC3)CC2)cc1Cl,-1.0,3.8,-9.1,nt,2.5,i,-41.9,-3.9
